Screening data (PubChem BioAssay)
Arbovirus inh = antivirals against arbovirus infection; arbovirus infection cell-based antiviral screen; actives 0.37% (n = 200,000); AID 1251; inhibition, % at 10 µM;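 active = inhibition from about 30%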;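 note: bluetongue infection of BSR cells; cell survival read as ATP light after 72 h; 0% = infected wells without compound and 100% = uninfected wells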
YopH PTP inh = YopH (Yersinia) phosphatase inhibition; fluorescence Ex485/Em525; inhibition, %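 (about 10 µM by stock and volumes)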; actives 0.16% (n = 140,000);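 active = inhibition of 50% or more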;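 note: controls were vehicle for no effect and minimum signal wells for full effect; inactives centre near -20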
Mtb betalactam = beta-lactam sensitization of Mtb H37Rv. M. tuberculosis H37Rv growth with meropenem, percent inhibition; hits of this screen are not shown here. inhibition, % at 25 µM. actives 0.27% (n = 330,000);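 active = about 74% or more and at least 40 points above the plate without the antibiotic, then above 30% in a dose series; inconclusive = first-round hits that could not be retested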;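 note: growth measured after seven days incubation then overnight dye step; 0% = bacteria only wells and 100% = bacteria with antibiotic; twin plates without the antibiotic show which effects depend on it; some results filed as inactive read as strong as hits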
Mtb growth = M. tuberculosis H37Rv growth inhibitors, H37Rv strain (AID 1626); M. tuberculosis H37Rv growth inhibition; higher % means a stronger effect; inhibition, % at 10 µM; hits with a dose series show IC50 in µM; actives 0.95% (n = 220,000);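 active = confirmed in a dose series; inconclusive = inhibition above 80% but not taken into the dose series; inactive = below 80% or under 30% at every dose of the series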;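 note: bacteria incubated seven days before Alamar blue readout; 0% = bacteria only wells and 100% = bacteria with antibiotic wells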
RecA splice inh = inhibitors of M. tuberculosis RecA intein splicing | P9WHJ3 | cell-free RecA intein splicing, fluorescence | inhibition, %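 (about 9 µM by stock and volumes)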 | actives 0.75% (n = 290,000) | AID 2221; in the data active = inhibition above about 30%; inconclusive = no clear call, values can overlap the other calls;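 note: 0% = vehicle wells and 100% = reference inhibitor control wells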
Target sequence (P9WHJ3 whole entry, looked up, canonical isoform): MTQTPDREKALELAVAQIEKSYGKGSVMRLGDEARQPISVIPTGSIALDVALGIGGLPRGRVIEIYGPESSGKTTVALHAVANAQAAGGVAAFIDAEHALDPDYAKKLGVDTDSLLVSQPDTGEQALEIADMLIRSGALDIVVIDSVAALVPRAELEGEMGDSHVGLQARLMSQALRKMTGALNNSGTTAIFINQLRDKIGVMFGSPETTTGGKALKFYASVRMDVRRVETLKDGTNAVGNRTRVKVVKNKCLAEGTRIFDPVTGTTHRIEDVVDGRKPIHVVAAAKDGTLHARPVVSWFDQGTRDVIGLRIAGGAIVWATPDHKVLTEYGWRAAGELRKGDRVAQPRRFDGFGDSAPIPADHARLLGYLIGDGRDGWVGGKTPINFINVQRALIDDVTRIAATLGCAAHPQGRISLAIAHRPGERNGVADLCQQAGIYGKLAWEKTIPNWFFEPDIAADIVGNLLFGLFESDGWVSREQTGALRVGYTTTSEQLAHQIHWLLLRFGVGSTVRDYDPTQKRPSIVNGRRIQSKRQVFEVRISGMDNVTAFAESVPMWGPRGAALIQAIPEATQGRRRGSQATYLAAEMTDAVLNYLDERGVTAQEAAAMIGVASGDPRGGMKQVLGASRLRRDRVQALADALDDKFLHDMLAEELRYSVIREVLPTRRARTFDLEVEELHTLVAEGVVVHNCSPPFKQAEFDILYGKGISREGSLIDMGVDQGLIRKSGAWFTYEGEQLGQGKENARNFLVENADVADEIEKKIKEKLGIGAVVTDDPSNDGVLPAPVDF
Arbovirus inh repeat = further read-out of Arbovirus inh, marked with its call; inhibition, %; measured here: 10K subset replicate screen; many hits read low in the repeat;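 first of two repeat runs on a subset; 0% = infected and 100% = uninfected wells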
* hit, by the source's call; ? = inconclusive; . = no result given.

SMILES | Arbovirus inh | YopH PTP inh | Mtb betalactam | Mtb growth | RecA splice inh | others
CCCCCNC(=O)Cn1c(=O)c2c(ncn2CC(C)C)n(Cc2ccccc2)c1=O | . | . | 7 | . | -0.6
C=CCn1cnc2c(nnn2-c2cc(C)cc(C)c2)c1=O | 0 | . | -4 | 9% | 1.4
CC(=O)Nc1ccc(S(=O)(=O)NNC2=NS(=O)(=O)c3ccccc32)cc1 | 16 | . | 5 | -8% | -3.2
CC(C)=CCc1c(O)c(CC=C(C)C)c2c(c1O)-c1cc(O)c(O)cc1CC2 | . | . | -2 | 4% | .
COc1cc(/C=N/NC(=O)c2ccccn2)ccc1OC(=O)c1ccccc1Br | . | . | 97 | . | -0.8
CC(=O)N(C)c1ccc(NS(=O)(=O)c2cc(Cl)ccc2Cl)cc1 | 13 | . | -1 | 4% | -0.5
Cc1sc2ncnc(SCC(=O)N(C(C)C)C(C)C)c2c1C | 6 | . | -3 | -3% | -1.4
CCSc1nnc(-c2ccc(OC)cc2)o1 | 0 | -6 | 37 | 11% | -0.1
COc1ccccc1NC(=O)CNC(=O)c1ccccc1 | 5 | 30 | -5 | -3% | 0.0
COc1ccc(OC)c(S(=O)(=O)N2CCN(c3ccc(F)cc3)CC2)c1 | . | . | -4 | . | 3.0
COc1ccccc1-n1c(-c2ccccc2F)nc2ccccc2c1=O | . | . | -10 | . | 9.7
CC(=O)c1ccc(Nc2ccc(-c3ccccc3F)nn2)cc1 | 6 | . | 5 | -2% | -0.3
COC(=O)c1ccc(COc2ccc(C=O)cc2OC)o1 | 0 | . | 11 | 2% | -2.1
O=[N+]([O-])c1ccc(/C=C2\CCC(C3=CCCC3)=C2N2CCOCC2)cc1 | 11 | -18 | ? | 8% | -1.7
CCn1c(COc2cccc(C)c2)nnc1SCC(=O)Nc1cccc(C(=O)OC)c1 | -3 | -30 | 4 | -6% | 3.6
O=S(=O)([O-])CCC[N+]1(CC#Cc2ccccc2)CCCCC1 | 11 | . | -2 | -4% | -0.4
Cc1cccc(N=C2NC(=O)/C(=C/C=C/c3ccco3)S2)c1 | 19 | -3 | 0 | 4% | 12
Cc1ccc(Nc2cnn(C34CC5CC(CC(CC(=O)O)(C5)C3)C4)c(=O)c2Cl)cc1C | 12 | -3 | 4 | 1% | 1.6
COc1ccccc1-c1cc(C(F)(F)F)nc(S(=O)(=O)CCCC(=O)NC(C)C)n1 | -34 | -36 | 44 | -5% | 22
O=c1[nH]c(=S)n(CCC2=CCCCC2)c(O)c1C=NCc1cccnc1 | 11 | -15 | -6 | -9% | -0.6
O=C(Oc1cccc(OC(=O)N2CCCCC2)c1)N1CCCCC1 | 10 | . | 2 | 2% | 0.9
CCCNC(=O)CN(c1ccc(F)cc1)S(=O)(=O)c1ccc2c(c1)OCCO2 | 10 | -26 | 4 | -16% | 0.1
O=C(COc1ccc(F)cc1Br)N1CCN(c2ncccn2)CC1 | 4 | . | -2 | -2% | -5.8
COc1ccccc1NC(=O)Cn1cnc2sc(C(=O)Nc3ccc(OC)c(OC)c3)c(C)c2c1=O | . | . | 10 | . | -2.6
CSc1nc2c(c(=O)n1-c1ccc(C)cc1)SCC2 | -3 | -9 | -6 | -1% | 2.1
Next part:
SMILES | Arbovirus inh | YopH PTP inh | Mtb betalactam | Mtb growth | RecA splice inh | others
Cc1occc1C(=O)N/N=C/c1cccs1 | 0 | -12 | -5 | -9% | 0.2
CCC(=O)Nc1ccc(C(=O)CSc2nc3ccccc3[nH]2)cc1 | 7 | -11 | 4 | 11% | 0.2
CN(C(=O)COc1ccccc1)c1nc(-c2ccc(F)cc2)cs1 | -1 | . | -2 | -1% | 0.7
C=CCSc1nc2c(cc1C#N)CCC2 | -9 | -6 | -5 | 3% | 2.9
COc1ccc(C2CC23N=C(c2ccccc2)OC3=O)cc1 (stereo not drawn) | 6 | -10 | 49 | 1% | 14
Cc1ccc(N2C(=O)N(CC(=O)Nc3cc(Cl)ccc3C)C(=O)C2C)cc1 (stereo not drawn) | . | . | -5 | . | -0.1
Cc1cccc2cc(CN(Cc3nnnn3Cc3ccccc3)C3CCCC3)c(=O)[nH]c12 | -8 | -22 | -2 | 2% | 6.3
O=C(c1ccc([N+](=O)[O-])cc1[N+](=O)[O-])N1CCCC1 | -7 | . | -11 | -2% | -4.7
COc1cc(OC)c(S(=O)(=O)Nc2ccc(C(=O)O)cc2)cc1S(=O)(=O)Nc1ccc(C(=O)O)cc1 | . | . | 1 | . | -1.9
CC(C)COCc1ccc(O)c2ncccc12 | -12 | . | 100 | 47% | 1.3
CCCOC(=O)c1c(NC(=O)CCCn2nc([N+](=O)[O-])c(Cl)c2C)sc(C(=O)OC)c1C | -7 | -8 | 4 | -3% | 2.1
CC(=O)Nc1ccc(S(=O)(=O)NCCC(=O)Nc2ccc(C)c(Cl)c2)cc1 | -1 | -22 | 8 | 2% | -4.1
CN(C)S(=O)(=O)c1ccc(Cl)c(C(=O)Nc2ccc(S(=O)(=O)N3CCOCC3)cc2)c1 | . | . | 3 | . | 0.4
COc1ccc(CC2C(=O)NC(=O)N(c3ccccc3)C2=O)c(OC)c1 (stereo not drawn) | 2 | -51 | 2 | 2% | -2.2 | Arbovirus inh repeat=1
O=C(Cn1cnc2c(oc3ccccc32)c1=O)c1ccccc1 | -1 | -35 | -11 | -10% | 1.4
Cc1cc(C(=O)NCc2ccc(C(=O)O)o2)c(C)o1 | 7 | -27 | -3 | -8% | -1.8
COc1ccc(C23CC4CC(CC(C4)C2)C3)cc1C(=O)NCCN(C)C | . | . | 4 | . | 2.4
CCOC(=O)c1cc2sccc2n1CC(=O)O | 5 | -30 | 2 | -3% | 1.2
CC(C)(C)c1ccc(C(=O)NC(=S)Nc2nc3c(s2)CCCC3)cc1 | -3 | -31 | 3 | ? | 1.7
CCN(CC)C1CC(=O)N(c2ccc(Br)cc2)C1=O (stereo not drawn) | . | . | -4 | . | 7.0
CCOC(=O)N1CCC(N2Cc3cccc(C(=O)N4CCN(c5cccc(Cl)c5)CC4)c3C2=O)CC1 | 4 | . | -10 | 5% | -0.6
Cc1cc(NC(=O)CSc2nnc(C3CC3)n2N)c([N+](=O)[O-])cc1C | 4 | . | -1 | -1% | .
COc1cc(C(=O)Nc2ccc(S(=O)(=O)Nc3nccc(C)n3)cc2)c([N+](=O)[O-])cc1OC | . | . | -9 | -11% | 1.5
CC(=O)Nc1ccc(S(=O)(=O)N2CCC(C(=O)NCCc3c[nH]c4ccccc34)CC2)cc1 | . | . | -2 | . | -1.3
CC(C)(C)Nc1ncnc2sc(-c3ccccc3)cc12 | . | . | 10 | . | -5.4
Continued.
SMILES | Arbovirus inh | YopH PTP inh | Mtb betalactam | Mtb growth | RecA splice inh | others
CCOC(=O)N1CCN(C(=O)c2ccc3oc(CCCc4ccccc4)nc3c2)CC1 | . | . | 7 | . | -1.7
CCOc1ccccc1N(C)C(=O)c1sc2ncn(CC(=O)N3CCCCC3C)c(=O)c2c1C (stereo not drawn) | . | . | -1 | . | -0.5
Cc1noc(C)c1CSc1nc2ccccc2c(=O)n1-c1ccc(F)cc1F | -16 | -45 | 25 | . | 14
CCOc1ccc(OCC)c2sc(C)nc12 | 5 | -5 | -4 | 1% | 1.3
CC(C(=O)NCC1(c2ccccc2)CCOCC1)N1CCOCC1 (stereo not drawn) | 7 | . | -3 | 0% | .
CCc1onc(C)c1C(=O)Nc1cc(C)ccc1OC | 5 | -21 | 1 | -13% | 1.2
COc1ccc(CN(CC(=O)NCc2ccco2)C(=O)CCC(=O)Nc2nccs2)cc1 | -2 | 2 | -12 | -3% | -2.8
CC(C)CN(C(=O)c1cccc(S(=O)(=O)N2CCN(C)CC2)c1)C1CCS(=O)(=O)C1 (stereo not drawn) | . | . | 1 | . | 1.2
COc1ccc(/C=N/NC(=O)c2ccc(-c3ccccc3)cc2)cc1O | -8 | -21 | 0 | 7% | 7.0
OCCNc1nc(Nc2ccccc2Oc2ccccc2)nc(N2CCCC2)n1 | . | . | 45 | 1% | 4.6
CC1CCCCC1NC(=O)c1ccncc1 (stereo not drawn) | . | . | -7 | . | -0.9
COc1ccc(S(=O)(=O)Nc2ccc3oc4ncccc4c(=O)c3c2)cc1OC | . | . | -3 | -10% | -0.8
O=S(=O)(c1ccccc1Br)N1CCC(O)(c2cccnc2)CC1 | -7 | . | -4 | -5% | 0.6
COc1ccc(OC2C(=O)N(Cc3ccc4c(c3)OCO4)C2c2cccs2)cc1 (stereo not drawn) | -4 | -21 | 9 | -1% | 1.2
O=S(=O)(Nc1cccc(-c2cn3c(n2)SCC3)c1)c1cccs1 | -4 | . | 8 | 2% | 1.1
CCn1c(SCC(=O)NNC(=S)Nc2ccccc2)nnc1-c1ccc(Cl)cc1 | -9 | -23 | 8 | -4% | 0.1
COc1cc(/C=C2\SC(=O)N(CC(=O)Nc3cccc(C)c3)C2=O)ccc1OC(C)C(=O)O (stereo not drawn) | . | . | 2 | . | 1.3
Cc1c(O)ccc2c(CN3CCN(Cc4ccccc4)CC3)cc(=O)oc12 | . | . | -6 | . | -3.0
O=c1[nH]c(=S)n(Cc2ccc(F)cc2)c(O)c1C=NCc1ccc2c(c1)OCO2 | . | . | 3 | -1% | .
Cn1c(=O)cc(SCC(=O)NCC2COc3ccccc3O2)c2ccccc21 (stereo not drawn) | 13 | -42 | -3 | -9% | 1.2
O=C(c1ccc(F)cc1)N1CCCC(C(=O)N2CCCCC2)C1 (stereo not drawn) | . | . | -6 | . | -3.2
CCN1CCCC1CNC(=O)Cn1cnc2sc(C)c(S(=O)(=O)N3CCC(C)CC3)c2c1=O (stereo not drawn) | 22 | 19 | -8 | -8% | 0.0 | Arbovirus inh repeat=1
c1ccc(CCN(Cc2ccccc2)C2CCN(C3CCCC3)CC2)cc1 | 16 | . | 8 | -2% | 2.4
CCCCn1c(N)c(N(CC(C)C)C(=O)c2ccc(N3C(=O)c4ccccc4C3=O)cc2)c(=O)[nH]c1=O | . | . | -5 | . | -3.3
O=C(NC1CCCC1)C(c1ccc(F)cc1)N(Cc1ccccc1)C(=O)c1csnn1 (stereo not drawn) | . | . | 4 | . | 1.9
Further entries
SMILES | Arbovirus inh | YopH PTP inh | Mtb betalactam | Mtb growth | RecA splice inh | others
CC(O)c1cccc(NC(=O)CCC(=O)O)c1 (stereo not drawn) | 1 | -28 | 16 | -8% | 2.9 | Arbovirus inh repeat=2
O=C1OCc2cc(NS(=O)(=O)c3cccs3)ccc21 | 4 | -20 | 2 | -6% | -2.4
CC(=O)NCC(=O)OC(C)C(=O)Nc1ccc(C(C)=O)cc1 (stereo not drawn) | 0 | -14 | 5 | -10% | -1.6
COc1cc(CNCCc2ccccc2F)ccc1OCc1ccc(Cl)nc1 | -19 | -12 | -3 | -12% | -2.2
CCN1C(=O)CSc2ccc(C(=O)NCc3ccc(OC)cc3)cc21 | 3 | -20 | -7 | -1% | 0.7
CC1(C)CC(NC(=O)c2cccc([N+](=O)[O-])c2)CC(C)(C)N1 | . | . | -1 | . | 0.0

Of the compounds above, eleven have two or more sulfur atoms.
SMILES | Arbovirus inh | YopH PTP inh | Mtb betalactam | Mtb growth | RecA splice inh | others
CC(=O)Nc1ccc(S(=O)(=O)NNC2=NS(=O)(=O)c3ccccc32)cc1 | 16 | . | 5 | -8% | -3.2
Cc1sc2ncnc(SCC(=O)N(C(C)C)C(C)C)c2c1C | 6 | . | -3 | -3% | -1.4
CSc1nc2c(c(=O)n1-c1ccc(C)cc1)SCC2 | -3 | -9 | -6 | -1% | 2.1
COc1cc(OC)c(S(=O)(=O)Nc2ccc(C(=O)O)cc2)cc1S(=O)(=O)Nc1ccc(C(=O)O)cc1 | . | . | 1 | . | -1.9
CN(C)S(=O)(=O)c1ccc(Cl)c(C(=O)Nc2ccc(S(=O)(=O)N3CCOCC3)cc2)c1 | . | . | 3 | . | 0.4
CC(C)(C)c1ccc(C(=O)NC(=S)Nc2nc3c(s2)CCCC3)cc1 | -3 | -31 | 3 | ? | 1.7
CC(C)CN(C(=O)c1cccc(S(=O)(=O)N2CCN(C)CC2)c1)C1CCS(=O)(=O)C1 (stereo not drawn) | . | . | 1 | . | 1.2
O=S(=O)(Nc1cccc(-c2cn3c(n2)SCC3)c1)c1cccs1 | -4 | . | 8 | 2% | 1.1
CCn1c(SCC(=O)NNC(=S)Nc2ccccc2)nnc1-c1ccc(Cl)cc1 | -9 | -23 | 8 | -4% | 0.1
CCN1CCCC1CNC(=O)Cn1cnc2sc(C)c(S(=O)(=O)N3CCC(C)CC3)c2c1=O (stereo not drawn) | 22 | 19 | -8 | -8% | 0.0 | Arbovirus inh repeat=1
O=C1OCc2cc(NS(=O)(=O)c3cccs3)ccc21 | 4 | -20 | 2 | -6% | -2.4

Some of the compounds tested, so the mix of outcomes need not match the whole.
